Source: PubChem (National Center for Advancing Translational Sciences (NCATS))
ClpP mod: qHTS Assay for Activators of ClpP. purified B. subtilis ClpP, FRET peptide cleavage, 20 min. Potency, µM (titrated, usually from 57.5 µM), without a hit: at the highest dose activity change, negative = active. hit rate 1.9% among 340,000. AID 651965, 2013; active = well fitted falling curve with a large enough effect; inconclusive = small, poorly fitted or top-dose-only effect; inactive = no such curve, though single readings can be large or run the other way; further: potency means the concentration at half of the fitted maximal effect; the source files actives as falling curves though it sought activators and does not explain the sign; nearly all actives have a fitted effect of over 65% in size; many hits overshoot -100%
Target sequence (P80244 whole entry, looked up): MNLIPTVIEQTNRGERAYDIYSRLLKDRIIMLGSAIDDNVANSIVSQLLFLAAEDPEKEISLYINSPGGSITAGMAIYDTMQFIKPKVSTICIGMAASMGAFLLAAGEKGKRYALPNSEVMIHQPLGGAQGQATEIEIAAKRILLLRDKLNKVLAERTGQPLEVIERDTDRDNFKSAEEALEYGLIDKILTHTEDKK
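FRET quenching reversal measured ClpP activation: 10 microg/mL B. subtilis ClpP at pH 8 with the FRET-FV decapeptide, read at 430 nm after 320 nm excitation. The 20-min minus 0-min signal was scaled between DMSO/no-enzyme wells and ADEP (5.8 microM final).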
gsp agonist: gsp mutant agonism. gsp mutant cells, cAMP HTRF, 30 min; control for the full effect not named in the record. Potency, µM (highest dose often 76.9 µM), without a hit: at the top dose activation (cAMP increase), most hits filed as activators. hit rate 0.13% among 340,000; active = well fitted activation curve with a large enough effect; inconclusive = small, poorly fitted or top-dose-only effect, or another doubt; inactive = no such curve, though single readings can be large or run the other way; cell line not stated here;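 further: phosphodiesterase inhibitor Ro 20-1724 added with compounds to block cAMP breakdown; potency means the concentration at half of the fitted maximal effect; nearly all actives have a fitted effect of over 60% in size; about a fifth of the inactives were tested at one dose only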
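Cells in DMEM/10% FBS with G418 were pretreated with compounds in DMSO plus […] (300 uM stock) for 30 min at 37C. cAMP was measured by HTRF (cAMP-d2 plus anti-cAMP antibody-K) after 30 min at room temperature.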
TRPML1 inh: inhibitors of human TRPML1 channel. TRPML1-inducible cells, Ca2+ dye fluorescence, FDSS; hits give low values; inhibition of EC80 agonist-evoked calcium signal. hit rate 0.02% among 390,000. activity change, negative = inhibition, % (concentration not given with the values). Q9GZU1. AID 624415; in the data active means activity change below about -50%; inconclusive means about -30% to -50%; inactive means above about -30%;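 further: stimulus is agonist 54-4 at its EC80 concentration; on the % scale 0 is the no-effect control and ±100 the full control effect; compound concentration not given in the record; the text of the record puts the active cut at -80%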
Target sequence (Q9GZU1 whole entry, looked up): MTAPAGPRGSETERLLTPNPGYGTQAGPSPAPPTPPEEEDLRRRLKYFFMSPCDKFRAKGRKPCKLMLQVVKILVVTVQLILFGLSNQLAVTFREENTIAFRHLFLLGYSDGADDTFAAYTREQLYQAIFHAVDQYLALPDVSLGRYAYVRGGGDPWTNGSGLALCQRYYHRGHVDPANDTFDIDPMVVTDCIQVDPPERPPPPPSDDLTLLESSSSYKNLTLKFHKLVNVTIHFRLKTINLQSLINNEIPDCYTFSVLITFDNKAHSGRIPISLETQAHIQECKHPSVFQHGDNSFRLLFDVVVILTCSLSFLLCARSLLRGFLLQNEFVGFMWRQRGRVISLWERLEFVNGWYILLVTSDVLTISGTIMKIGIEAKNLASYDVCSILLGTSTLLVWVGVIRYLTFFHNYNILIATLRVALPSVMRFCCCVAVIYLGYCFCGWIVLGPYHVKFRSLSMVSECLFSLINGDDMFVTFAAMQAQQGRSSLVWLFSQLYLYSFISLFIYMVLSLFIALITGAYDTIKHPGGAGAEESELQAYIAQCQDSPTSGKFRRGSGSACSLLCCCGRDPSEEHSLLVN
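Tet-induced TRPML1-DL cells loaded with Ca8 no-wash calcium dye were read kinetically on FDSS. Compound addition was followed by EC80 agonist 54-4 (4 uM final); inhibition was read over 110 s.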
gsp antag: gsp mutant antagonism | gsp-mutant cells, cAMP HTRF, 30 min; control for the full effect not named in the record | Potency, µM (highest dose often 76.9 µM), for the others: at the top dose activity change, negative = inhibition, usual class: inhibitors | hit rate 0.4% among 340,000; active = falling curve of any shape with a large fitted effect; inconclusive = falling curve, mostly with a smaller effect; inactive = flat or rising curve; cell line not stated here;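 further: intracellular cAMP measured with PDE inhibitor Ro 20-1724 present during compound exposure; potency means the concentration at half of the fitted maximal effect; on the % scale 0 is the no-effect control and ±100 the full control effect; nearly all actives have a fitted effect of over 65% in size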
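Measurement of cellular cAMP by homogeneous time-resolved fluorescence following a 30 min compound exposure at 37C. The PDE inhibitor […] was present throughout; the assay buffer was DPBS with 0.05% BSA and 0.005% Tween 20.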
TRPML1 agonist: human mucolipin-1 channel agonism; Q9GZU1; TRPML1-expressing cells, Ca2+ dye fluorescence, FDSS; host cell line not named in the record; reference of the full effect not given here; activation, % (test concentration not listed); hit rate 0.12% among 410,000; AID 624414; in the data active = activation above about 50%; inconclusive = about 30% to 50%; inactive = below about 30%; further: 0% is about no effect; the text of the record puts the active cut at 80%
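Cells: TRPML1-DL, 1X Tet inducer, ~16 h at 37 degrees C/5% CO2. Dye: ABD Ca8 no-wash + quencher, 45-90 min RT. Read: 10 s baseline, compound add, 110 s agonist phase; 54-4 EC80 (4uM final), 110 s antagonist phase.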
Menin MLL FP FL: menin-MLL binding inhibition, fluorescein peptide; 290,000 tested, under 10 active; FP activity change, % at 61.4 µM; Fluorescence polarization, fluorescein-MLL peptide displacement from menin; inconclusive = falling polarisation curve, or a change in total fluorescence; inactive = total fluorescence flat and polarisation flat or rising; no compound was filed as active; the % refers to the polarisation; negative = inhibition;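 further: % of control where 0% means no effect; inhibitors lower the polarisation; unlabelled MLL peptide was the positive control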
* marks the source's active call; other numbers are inactive results; & = joins results of further samples; [ ] = dose if it differs, or a comment.

What do the screens show for `CC(C)C[C@@]12C(=O)N(c3cccc(F)c3)C(=O)N1[C@H](c1ccc(Br)cc1)[C@@H]1C(=O)N(C(C)(C)C)C(=O)[C@@H]12`?
ClpP mod: -0.9%; gsp agonist: -45.3%; TRPML1 inh: -9.1; gsp antag: 5.3%; TRPML1 agonist: -0.1

How did O=C(NCCc1ccccc1)c1ccc(CS(=O)(=O)Cc2ccc(F)cc2)o1 do in these assays?
ClpP mod: -0.5%; gsp agonist: 30.5%; TRPML1 inh: 10.9; gsp antag: -5.6%; TRPML1 agonist: -0.3

Results for CC(C)[C@H](NC(=O)c1ccccc1)C(=O)OCC(=O)NCc1ccc(F)cc1 ?
ClpP mod: -7.3%; gsp agonist: 15.9%[15.4 µM]; TRPML1 inh: 8.3; gsp antag: 2.5%; TRPML1 agonist: -1.2; Menin MLL FP FL: 3.3

What do the screens show for `Cc1cccc(N2CCN(C(=O)c3ccc4c(c3)N(Cc3cccc(Cl)c3)C(=O)c3ccccc3S4=O)CC2C)c1` (configuration not stated)?
ClpP mod: -0.3%; TRPML1 inh: -2.2; TRPML1 agonist: 0.0

Results for O=C(O)C/C=C(/NC(=O)OCc1ccccc1)C(=O)OCc1ccccc1 ?
gsp agonist: 14.3%; TRPML1 inh: -8.6; gsp antag: 3.7%; TRPML1 agonist: 3.2; Menin MLL FP FL: -0.2

What do the screens show for `Cn1c(=O)c(=O)n(C)c2cc(S(=O)(=O)NCCN3CCN(c4ccccc4F)CC3)ccc21`?
gsp agonist: 5.2%[15.4 µM]; TRPML1 inh: 2.2; gsp antag: 4.9%; TRPML1 agonist: 0.2; Menin MLL FP FL: 1.6

How did CC(C)c1ccc2c(c1)C(N1CCN(C)CC1)Cc1cccnc1S2 (configuration not stated) do in these assays?
gsp agonist: 12.0%; TRPML1 inh: -6.4; gsp antag: 3.4%; TRPML1 agonist: 0.0

What do the screens show for `Cc1ccc(C)c(N2CCN(C(=O)CN(C)S(=O)(=O)c3cnc[nH]3)CC2)c1`?
ClpP mod: -1.4%; gsp agonist: -2.8%; TRPML1 inh: -13.1; gsp antag: 0.6%; TRPML1 agonist: 0.0; Menin MLL FP FL: -1.6

Results for CC(=O)Nc1ccc(Nc2nc(C)nc3c2oc2ccccc23)cc1 ?
ClpP mod: 14.4%; gsp agonist: -5.5%; TRPML1 inh: 24.5; gsp antag: 0.9%; TRPML1 agonist: 2.9; Menin MLL FP FL: 5.2

Results for COc1ccc(Cl)cc1Nc1ccc2cc(S(=O)(=O)N3CCCCC3)ccc2n1 ?
ClpP mod: 2.0%; TRPML1 inh: 7.6; TRPML1 agonist: 4.4

How did CCCn1c(N)c(Sc2ccc([N+](=O)[O-])cc2)c(=O)n(CCC)c1=O do in these assays?
gsp agonist: -9.7%[15.4 µM]; TRPML1 inh: -0.9; gsp antag: 1.7%; TRPML1 agonist: 0.5; Menin MLL FP FL: -1.5

What do the screens show for `CCOC(=O)C1CCN(C(=O)CN2c3ccc(CC)cc3-c3ccccc3S2(=O)=O)CC1`?
ClpP mod: -27.0%; TRPML1 inh: -9.4; TRPML1 agonist: -0.9

What do the screens show for `CCOC(=O)c1noc2nc(C)n(CC(=O)Nc3ccc(Br)cc3C)c(=O)c12`?
ClpP mod: -2.6%; TRPML1 inh: -20.4; TRPML1 agonist: 1.1

How did CN(C)C(=O)CSc1nc(-c2ccccc2)nc2c1CCCC2 do in these assays?
ClpP mod: 0.6%; gsp agonist: -29.5%; TRPML1 inh: 21.8; gsp antag: -7.0%; TRPML1 agonist: 0.1; Menin MLL FP FL: 2.8

What do the screens show for `Cn1ccnc1SCc1ccc(Cl)cc1Cl`?
gsp agonist: -1.3%; TRPML1 inh: 5.4; gsp antag: 0.8%; TRPML1 agonist: 2.5; Menin MLL FP FL: -1.1

What do the screens show for `Cc1ccc(S(=O)(=O)N2[C@@H](c3ccccc3F)C(C(=O)O)=CC[C@H]2c2cccc(Cl)c2)cc1`?
ClpP mod: -1.4%; gsp agonist: -42.8%[inhibitor]; TRPML1 inh: 48.4; gsp antag: -6.0%; TRPML1 agonist: -0.6

What do the screens show for `COc1ccc(S(=O)(=O)N(CC(=O)NCC2CCCO2)C2CCCCC2)cc1OC` (configuration not stated)?
gsp agonist: -10.8%; TRPML1 inh: -7.2; gsp antag: -1.1%; TRPML1 agonist: 2.0; Menin MLL FP FL: 7.2

How did Cc1ccc(C(=O)N2CCCC2)cc1S(=O)(=O)Nc1ccccc1 do in these assays?
ClpP mod: -8.3%; gsp agonist: 16.8%; TRPML1 inh: -7.9; gsp antag: -6.8%; TRPML1 agonist: 0.0; Menin MLL FP FL: 0.1

What do the screens show for `CC1CCc2cccc3c(O)cc(=O)n1c23` (configuration not stated)?
ClpP mod: -11.9%; gsp agonist: -2.1%; TRPML1 inh: 39.5; gsp antag: -9.2%; TRPML1 agonist: -0.4

How did CSc1ncc2c(n1)-c1ccccc1N(Cc1ccc(Cl)cc1)S2(=O)=O do in these assays?
ClpP mod: -3.0%; TRPML1 inh: 2.1; TRPML1 agonist: -0.1

How did CCC(C)(C)NC(=O)C(c1ccc(F)cc1)N(Cc1ccc(OC)cc1)C(=O)c1cnccn1 (configuration not stated) do in these assays?
gsp agonist: 8.7%[15.4 µM]; TRPML1 inh: -1.5; gsp antag: -19.7%; TRPML1 agonist: -0.7; Menin MLL FP FL: -1.3

What do the screens show for `COc1cccc(CN2CCc3nc(N4CCN(c5ncccn5)CC4)ncc3C2)c1`?
ClpP mod: -6.1%; TRPML1 inh: 14.1; TRPML1 agonist: 1.6

How did CN(C(=O)c1ccccc1C(=O)OCC(=O)c1ccc(Br)cc1)c1ccccc1 do in these assays?
ClpP mod: -1.9%; gsp agonist: 4.9%; TRPML1 inh: 42.7; gsp antag: -2.8%; TRPML1 agonist: 0.4

What do the screens show for `CCOC(=O)c1sc(/N=C/c2c(O)ccc3ccccc23)cc1C`?
ClpP mod: inconclusive; gsp agonist: -2.2%; TRPML1 inh: -20.2; gsp antag: 15.5%; TRPML1 agonist: -0.7; Menin MLL FP FL: 3.7

Results for CCCCc1ccc(NC(=O)CN2C(=O)C3CCCCC3C2=O)cc1 (configuration not stated) ?
ClpP mod: -3.5%; gsp agonist: -1.6%[15.4 µM]; TRPML1 inh: 1.4; gsp antag: -0.7%; TRPML1 agonist: 0.3

What do the screens show for `COc1ccc(Br)cc1CNC(=O)CCSCc1ccc(C)cc1`?
ClpP mod: -3.7%; TRPML1 inh: -4.7; TRPML1 agonist: 1.1

What do the screens show for `COc1ccc(C(=O)NCCn2cc(SCC(=O)Nc3cc(C)on3)c3ccccc32)cc1OC`?
ClpP mod: -1.2%; gsp agonist: 0.0%; TRPML1 inh: -2.5; gsp antag: -18.3%; TRPML1 agonist: 0.0; Menin MLL FP FL: 1.9

What do the screens show for `CC(=O)n1c2ccccc2c2nc3ccccc3nc21`?
ClpP mod: -18.1%; gsp agonist: -0.6%; TRPML1 inh: -6.0; gsp antag: -9.0%; TRPML1 agonist: 0.4; Menin MLL FP FL: -1.1

What do the screens show for `Clc1cc(Br)ccc1OCCOCCN1CCCC1`?
ClpP mod: -1.7%; gsp agonist: -8.1%; TRPML1 inh: 7.3; gsp antag: 7.2%; TRPML1 agonist: 1.5; Menin MLL FP FL: -1.6

What do the screens show for `Cc1ccccc1COc1ccc2oc(C)c(C(=O)O)c2c1`?
gsp agonist: 16.9%[15.4 µM]; TRPML1 inh: 16.6; gsp antag: -10.7%; TRPML1 agonist: -0.8; Menin MLL FP FL: -0.8

How did CN(c1ccccc1)S(=O)(=O)c1nnc(NC(=O)COc2ccccc2)s1 do in these assays?
ClpP mod: 0.7%&-1.5%; gsp agonist: -16.8%; TRPML1 inh: 1.2&-13.8; gsp antag: inconclusive; TRPML1 agonist: -0.5&0.4

Results for COc1ccc(Cl)cc1NC(=O)Cn1nc(-c2ccc(C)cc2)n(C)c1=S ?
ClpP mod: -0.9%; gsp agonist: -9.8%[15.4 µM]; TRPML1 inh: 17.7; gsp antag: 11.3%; TRPML1 agonist: -0.7; Menin MLL FP FL: -1.8

What do the screens show for `Cc1ccc(NC(=O)Cn2nc(-c3ccccc3)nc(Cc3ccccc3)c2=O)cc1`?
ClpP mod: -1.1%; TRPML1 inh: -5.4; TRPML1 agonist: 0.6

Results for O=C(NCCc1ccccc1)c1ccc2nccnc2c1 ?
gsp agonist: -6.8%; TRPML1 inh: 1.1; gsp antag: 5.6%; TRPML1 agonist: -0.2; Menin MLL FP FL: -1.8

Results for CC(C)NC(=O)CSc1nc2ccccc2c(=O)n1Cc1ccc(C(=O)NC(C)C)cc1 ?
ClpP mod: -2.5%; TRPML1 inh: -12.6; TRPML1 agonist: 0.5

How did Nc1c(Cl)cc(-c2csc(N3CCCC3c3nc4cc(Cl)c(Cl)cc4n3CCCO)n2)cc1Cl (configuration not stated) do in these assays?
ClpP mod: 1.0%; TRPML1 inh: -10.1; gsp antag: -6.8%; TRPML1 agonist: -0.5

How did c1csc(-c2ccnc3ncnn23)c1 do in these assays?
ClpP mod: 3.3%; gsp agonist: 0.5%; TRPML1 inh: 0.2; gsp antag: 12.2%; TRPML1 agonist: 0.1; Menin MLL FP FL: 3.8

Results for COC(=O)Cc1[nH]c(=S)[nH]c1C(=O)OC ?
gsp agonist: -21.7%[15.4 µM]; TRPML1 inh: -1.0; gsp antag: -1.2%; TRPML1 agonist: 0.8; Menin MLL FP FL: 0.9

Results for CC(C)(C)n1nnnc1C(c1ccccc1F)N1CCN(C2CCCC2)CC1 (configuration not stated) ?
ClpP mod: -2.2%; gsp agonist: 4.3%; TRPML1 inh: -2.6; gsp antag: -0.2%; TRPML1 agonist: -0.4; Menin MLL FP FL: -4.9

What do the screens show for `CC(C)C(NC(=O)c1ccccc1NC(=O)c1ccco1)C(=O)NNC(=O)c1ccncc1` (configuration not stated)?
ClpP mod: 0.5%; gsp agonist: -1.7%[15.4 µM]; TRPML1 inh: 0.9; gsp antag: 4.7%; TRPML1 agonist: -0.1; Menin MLL FP FL: 0.0

What do the screens show for `CCN(CC)c1ccc(C(=O)OCc2c(C)noc2C)cc1`?
gsp agonist: 6.3%[15.4 µM]; TRPML1 inh: -1.8; TRPML1 agonist: 0.1; Menin MLL FP FL: 0.5

How did O=C1OC(Nc2ccc3ncccc3c2)c2ccccc21 (configuration not stated) do in these assays?
ClpP mod: -3.6%; gsp agonist: -33.1%; TRPML1 inh: 0.5; gsp antag: 0.4%; TRPML1 agonist: 0.3; Menin MLL FP FL: 4.8

What do the screens show for `CCn1c(C)[n+](Cc2ccccc2)c2ccc(Cl)cc21`?
gsp agonist: 9.6%[15.4 µM]; TRPML1 inh: -4.9; gsp antag: 3.3%; TRPML1 agonist: -0.2; Menin MLL FP FL: -1.5
